A1 apoptosis 2 – blocks A1, raising caspase activity. caspase activation, % (test concentration not listed). MEF A1-2A-BIM cells, caspase-Glo luminescence, 3 h; percent of clofoctol response, DMSO zero. 24,000 tested, under 10 active; in the data active = caspase activation above about 5.9%;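 also: wells of about 30 µL received 50 nL stock; the first replicate is given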
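system = A1-2A-BIM-expressing MEF cells | quantity = 2500 MEF cells/well | dosing = 50 nL compound per well, pinned | schedule = overnight cell settling, then 3 h compound exposure, 37 °C | signal = luminescence from DEVD-luciferin Caspase-Glo reagent, 1:1 in 50 mM HEPES, 1 h RT | read-out = Caspase-3/7 activation, seen as rise in luminescence signal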
* = called active by the depositor. An excerpt; count on the stated rates, not on these rows.

SMILES | A1 apoptosis 2
CC(C)NC(=O)Nc1cccc2c1O[C@@H](CN(C)Cc1ccc(Cl)c(Cl)c1)[C@H](C)CN([C@@H](C)CO)C2=O | 0.1
CNC[C@H]1OCCCC[C@@H](C)Oc2ccc(NC(=O)Nc3c(C)noc3C)cc2C(=O)N([C@H](C)CO)C[C@@H]1C | 0.1
Cc1noc(C)c1S(=O)(=O)Nc1ccc2c(c1)C(=O)N([C@@H](C)CO)C[C@@H](C)[C@@H](CN(C)C(=O)c1ccncc1)OCCCC[C@@H](C)O2 | -0.6
COc1cccc(-c2cnc3c(c2)C(=O)N([C@H](C)CO)C[C@H](C)[C@H](CN(C)S(=O)(=O)c2cccc(OC)c2)O3)c1 | 1.1
O=C(N/N=C/c1cc(Br)cc([N+](=O)[O-])c1O)c1ccccn1 | -3.1
COc1ccc(S(=O)(=O)N(C)C[C@@H]2Oc3c(NS(C)(=O)=O)cccc3C(=O)N([C@H](C)CO)C[C@H]2C)cc1 | -1.0
CC(C)(C)[C@H]1C=C(C(=O)O)O[C@@H](OCc2ccc(CO)cc2)C1 | -0.4
C[C@H](CO)N1C[C@H](C)[C@H](CN(C)C)Oc2ccc(NC(=O)NC3CCCCC3)cc2C1=O | -0.7
Cc1noc(C)c1NC(=O)Nc1ccc2c(c1)C(=O)N([C@@H](C)CO)C[C@@H](C)[C@@H](CN(C)S(C)(=O)=O)O2 | -0.6
Cc1cc(C(=O)Nc2cccc3c2O[C@@H](CN(C)Cc2ccc(-c4ccccc4)cc2)[C@@H](C)CN([C@H](C)CO)C3=O)n(C)n1 | -0.7
Cc1noc(C)c1S(=O)(=O)N(C)C[C@H]1Oc2ccc(NS(C)(=O)=O)cc2CC(=O)N([C@H](C)CO)C[C@H]1C | 0.8
COc1ccc(S(=O)(=O)Nc2ccc3c(c2)C(=O)N([C@H](C)CO)C[C@H](C)[C@H](CN(C)C(=O)Nc2ccc(C(F)(F)F)cc2)OCCCC[C@@H](C)O3)cc1 | -1.1
CNC[C@H]1OCCCC[C@@H](C)Oc2ccc(NS(=O)(=O)c3ccc(F)cc3)cc2C(=O)N([C@H](C)CO)C[C@@H]1C | 0.0
CC(C)=CCCC(C)(OC1OC(COC2OC(CO)C(O)C2O)C(O)C(O)C1O)C1CCC2(C)C1C(O)CC1C3(C)CCC(OC4OC(CO)C(O)C(O)C4OC4OC(CO)C(O)C(O)C4O)C(C)(C)C3CCC12C (configuration not stated) | 0.1
C[C@@H]1CCCCO[C@H](CN(C)C)[C@@H](C)CN([C@@H](C)CO)C(=O)c2cc(NS(=O)(=O)c3cccs3)ccc2O1 | -1.1
C[C@H]1CN([C@@H](C)CO)C(=O)c2cccc(NS(C)(=O)=O)c2O[C@H]1CN(C)Cc1ccc(C(=O)Nc2ccccc2N)cc1 | 0.6
C[C@H](CO)N1C[C@H](C)[C@H](CN(C)C(=O)Cc2ccccc2)OCCCC[C@H](C)Oc2ccc(NC(=O)Cc3ccccc3)cc2C1=O | -0.3
Cc1ccc(S(=O)(=O)Nc2cccc3c2O[C@H](CN(C)S(=O)(=O)c2ccc(F)cc2)[C@@H](C)CN([C@@H](C)CO)C3=O)cc1 | 0.2
C[C@@H]1CCCCO[C@H](CN(C)Cc2ccc(C(F)(F)F)cc2)[C@@H](C)CN([C@H](C)CO)C(=O)c2cc(NS(=O)(=O)c3ccc(F)cc3)ccc2O1 | -0.4
CCCC(O)C#Cc1cnc2c(c1)C(=O)N([C@H](C)CO)C[C@H](C)[C@H](CN(C)S(=O)(=O)c1cn(C)cn1)O2 (some centres not stated) | -0.6
C[C@H](CO)N1C[C@H](C)[C@@H](CN(C)Cc2ccc(C(=O)O)cc2)Oc2ccc(NS(=O)(=O)c3cn(C)cn3)cc2CC1=O | -0.3
Cc1noc(C)c1S(=O)(=O)Nc1ccc2c(c1)CC(=O)N([C@H](C)CO)C[C@H](C)[C@H](CN(C)Cc1ccc(Cl)c(Cl)c1)O2 | 0.9
C[C@@H]1CN([C@@H](C)CO)C(=O)c2cccc(NC(=O)Nc3ccc(C(F)(F)F)cc3)c2O[C@@H]1CN(C)CC1CC1 | -1.4
C[C@@H]1CCCCO[C@@H](CN(C)C(=O)Nc2ccccc2)[C@H](C)CN([C@@H](C)CO)C(=O)c2cc(N(C)C)ccc2O1 | -0.8
COc1ccc(S(=O)(=O)N(C)C[C@H]2Oc3ccc(NC(=O)c4ccncc4)cc3C(=O)N([C@H](C)CO)C[C@H]2C)cc1 | -0.9
COc1ccc(NC(=O)Nc2ccc3c(c2)C(=O)N([C@@H](C)CO)C[C@@H](C)[C@H](CN(C)S(=O)(=O)c2cn(C)cn2)O3)cc1 | 1.6
C[C@H](CO)N1C[C@H](C)[C@@H](CN(C)Cc2ccccc2)OCCCC[C@H](C)Oc2ccc(NC(=O)CCCN(C)C)cc2C1=O | -0.5
O=C(CCCCCC(=O)Nc1ccccc1O)N=NC=C1C=CN(O)C=C1 | -0.6
C[C@@H]1CN([C@H](C)CO)C(=O)CCCn2cc(nn2)CO[C@@H]1CN(C)C(=O)Nc1ccc2c(c1)OCO2 | -0.6
C[C@@H]1CN([C@@H](C)CO)C(=O)c2cc(NS(=O)(=O)c3ccc(F)cc3)ccc2O[C@@H](C)CCCCO[C@H]1CN(C)S(=O)(=O)c1cn(C)cn1 | 0.9
Cc1noc(C)c1NC(=O)N(C)C[C@H]1Oc2c(NC(=O)C3CCCCC3)cccc2C(=O)N([C@H](C)CO)C[C@H]1C | -0.1
COC(=O)[C@@]1(CCS(=O)(=O)c2ccccc2)N=C(c2ccc(OCCCO)cc2)O[C@H]1c1ccccc1CN=[N+]=[N-] | -0.4
C[C@H](CO)N1C[C@H](C)[C@H](CN(C)Cc2ccccc2)Oc2ncc(C#Cc3ccccc3)cc2C1=O | 0.9
Cc1noc(C)c1NC(=O)Nc1ccc2c(c1)CC(=O)N([C@H](C)CO)C[C@@H](C)[C@@H](CN(C)S(=O)(=O)c1ccccc1)O2 | 0.3
C[C@@H]1CN([C@@H](C)CO)C(=O)Cc2cc(NC(=O)Cn3cnnn3)ccc2O[C@H]1CN(C)Cc1ccc(-c2ccccc2)cc1 | -0.2
C[C@@H]1CN([C@H](C)CO)C(=O)c2cc(NC(=O)C3CCCCC3)ccc2O[C@H]1CN(C)Cc1ccc(-c2ccccc2)cc1 | 0.4
C[C@@H]1CN([C@H](C)CO)C(=O)CCCn2cc(nn2)CO[C@@H]1CN(C)Cc1ccc2cccnc2c1 | -0.8
C[C@@H]1CN([C@H](C)CO)C(=O)c2cc(NC(=O)C3CC3)ccc2O[C@H]1CN(C)Cc1ccc(Cl)c(Cl)c1 | 0.7
COCCOC(=O)N1C(=O)[C@@]2(c3cc(C#Cc4ccc(OC)cc4)ccc31)[C@H](c1ccccc1OCCO)N1[C@H](c3ccccc3)[C@H](c3ccccc3)OC(=O)[C@H]1[C@@H]2C(N)=O | 0.6
C[C@H](CO)N1C[C@H](C)[C@H](CN(C)S(C)(=O)=O)Oc2ncc(C#Cc3ccc(C(F)(F)F)cc3)cc2C1=O | 0.2
O=C(CCCCC(=O)N/N=C/c1ccco1)NO | -0.4
C[C@H]1CN([C@@H](C)CO)C(=O)Cc2cc(NC(=O)CCCCCC(=O)Nc3ccccc3N)ccc2O[C@@H]1CN(C)C | 0.7
COc1ccc(S(=O)(=O)N(C)C[C@H]2OCCCC[C@@H](C)Oc3ccc(NS(=O)(=O)c4ccc(Cl)cc4)cc3C(=O)N([C@H](C)CO)C[C@H]2C)cc1 | -0.9
Cc1noc(C)c1NC(=O)Nc1ccc2c(c1)C(=O)N([C@@H](C)CO)C[C@@H](C)[C@H](CN(C)C(=O)C1CCCCC1)OCCCC[C@@H](C)O2 | 0.0
C[C@@H]1CN([C@@H](C)CO)C(=O)c2cc(NC(=O)CCC(F)(F)F)ccc2O[C@@H]1CN(C)C(=O)Nc1ccc(F)cc1 | -0.7
COc1ccc(S(=O)(=O)N(C)C[C@H]2Oc3ccc(NC(=O)C4CC4)cc3C(=O)N([C@H](C)CO)C[C@@H]2C)cc1 | 0.0
O=C(N/N=C/c1cccc(O)c1)c1ccccc1O | -7.3
Cc1ccc(S(=O)(=O)Nc2ccc3c(c2)CC(=O)N([C@H](C)CO)C[C@H](C)[C@H](CN(C)Cc2ccc(Cl)c(Cl)c2)O3)cc1 | -0.4
C[C@H]1CCCCO[C@H](CN(C)S(=O)(=O)c2ccccc2)[C@@H](C)CN([C@@H](C)CO)C(=O)c2cc(NS(=O)(=O)c3ccc(F)cc3)ccc2O1 | 3.2
CNC[C@H]1Oc2ccc(NC(=O)C3CC3)cc2CC(=O)N([C@H](C)CO)C[C@H]1C | -0.3
Cc1noc(C)c1NC(=O)N(C)C[C@@H]1OCc2cn(nn2)CCCC(=O)N([C@H](C)CO)C[C@H]1C | 0.6
C[C@H]1CN([C@@H](C)CO)C(=O)c2cccc(NC(=O)NC3CCCCC3)c2O[C@@H]1CN(C)Cc1ccc(-c2ccccc2)cc1 | -0.2
C[C@H](CO)N1C[C@H](C)[C@H](CN(C)C(=O)Nc2ccc(C(F)(F)F)cc2)Oc2c(NC(=O)c3ccncc3)cccc2C1=O | 0.9
CNC[C@H]1Oc2c(NC(=O)C3CC3)cccc2C(=O)N([C@@H](C)CO)C[C@H]1C | 0.5
CC(C)NC(=O)Nc1ccc2c(c1)C(=O)N([C@@H](C)CO)C[C@H](C)[C@@H](CN(C)Cc1ccc(C(=O)O)cc1)OCCCC[C@@H](C)O2 | -1.1
C[C@@H]1CN([C@@H](C)CO)C(=O)Cc2cc(NC(=O)CCN3CCOCC3)ccc2O[C@@H]1CN(C)C | -0.1
C[C@H](CO)N1C[C@H](C)[C@@H](CN(C)CC2CCCCC2)OCCCC[C@H](C)Oc2ccc(NS(=O)(=O)c3cccs3)cc2C1=O | 0.1
C[C@H]1CN([C@@H](C)CO)C(=O)c2cccc(NC(=O)Nc3ccc4c(c3)OCO4)c2O[C@H]1CN(C)C(=O)Nc1ccc(C(F)(F)F)cc1 | -0.2
Cc1noc(C)c1S(=O)(=O)Nc1ccc2c(c1)C(=O)N([C@@H](C)CO)C[C@H](C)[C@H](CN(C)C(=O)C1CCCCC1)OCCCC[C@@H](C)O2 | 0.5
C[C@@H]1CN([C@H](C)CO)C(=O)c2cc(NC(=O)NC3CCCCC3)ccc2O[C@@H]1CN(C)C(=O)NC1CCCCC1 | 0.9

Overlap with the part before: six compounds; new compounds follow.
SMILES | A1 apoptosis 2
CC(C)NC(=O)Nc1ccc2c(c1)C(=O)N([C@@H](C)CO)C[C@H](C)[C@@H](CN(C)Cc1ccc(C(=O)O)cc1)OCCCC[C@@H](C)O2 | -1.1
C[C@@H]1CN([C@@H](C)CO)C(=O)Cc2cc(NC(=O)CCN3CCOCC3)ccc2O[C@@H]1CN(C)C | -0.1
C[C@H](CO)N1C[C@H](C)[C@@H](CN(C)CC2CCCCC2)OCCCC[C@H](C)Oc2ccc(NS(=O)(=O)c3cccs3)cc2C1=O | 0.1
C[C@H]1CN([C@@H](C)CO)C(=O)c2cccc(NC(=O)Nc3ccc4c(c3)OCO4)c2O[C@H]1CN(C)C(=O)Nc1ccc(C(F)(F)F)cc1 | -0.2
Cc1noc(C)c1S(=O)(=O)Nc1ccc2c(c1)C(=O)N([C@@H](C)CO)C[C@H](C)[C@H](CN(C)C(=O)C1CCCCC1)OCCCC[C@@H](C)O2 | 0.5
C[C@@H]1CN([C@H](C)CO)C(=O)c2cc(NC(=O)NC3CCCCC3)ccc2O[C@@H]1CN(C)C(=O)NC1CCCCC1 | 0.9
CC(C)NC(=O)Nc1ccc2c(c1)C(=O)N([C@@H](C)CO)C[C@@H](C)[C@@H](CN(C)Cc1ccccc1)OCCCC[C@H](C)O2 | -0.6
C[C@@H]1CN([C@@H](C)CO)C(=O)c2cc(NS(=O)(=O)c3ccccc3)ccc2O[C@@H](C)CCCCO[C@@H]1CN(C)C(=O)CCCN(C)C | 0.0
C[C@H](CO)N1C[C@H](C)[C@H](CN(C)S(=O)(=O)c2cccs2)OCCCC[C@H](C)Oc2ccc(NC(=O)NC3CCCCC3)cc2C1=O | -1.5
COc1ccc(S(=O)(=O)Nc2ccc3c(c2)CC(=O)N([C@@H](C)CO)C[C@H](C)[C@@H](CN(C)Cc2ccc(C(F)(F)F)cc2)O3)cc1 | -0.2
CC(C)NC(=O)N(C)C[C@@H]1Oc2ccc(NC(=O)CCC(F)(F)F)cc2CC(=O)N([C@H](C)CO)C[C@@H]1C | 1.2
C[C@H]1CN([C@@H](C)CO)C(=O)CCCn2cc(nn2)CO[C@@H]1CN(C)C(=O)Nc1ccc(C(C)(C)C)cc1 | 0.6
C[C@@H]1CCCCO[C@H](CN(C)C)[C@@H](C)CN([C@H](C)CO)C(=O)c2cc(NS(=O)(=O)c3ccccc3)ccc2O1 | -0.1
C[C@@H]1CN([C@H](C)CO)C(=O)c2cccc(N(C)C)c2O[C@H]1CN(C)CC1CC1 | -0.4
C[C@H]1CN([C@@H](C)CO)C(=O)c2cc(NC(=O)c3ccncc3)ccc2O[C@@H]1CN(C)S(=O)(=O)c1cccs1 | -0.8
O=C(NCc1ccc(F)cc1)[C@H]1C[C@H]2C(=O)N3CCC[C@H]3C(=O)N2[C@H]1c1cccc(OCCO)c1 | -1.5
Cc1noc(C)c1NC(=O)N(C)C[C@@H]1Oc2c(NC(=O)c3cnccn3)cccc2C(=O)N([C@@H](C)CO)C[C@H]1C | 0.6

Screens (PubChem BioAssay)
